Screening results from PubChem.
rRNA inh HTS – inhibits bacterial ribosomal RNA function over humanized ribosomes; GFP signal change (wild-type ribosome), % (test concentration not listed); actives 1.6% (n = 350,000); AID 720706; E. coli WT GFP vs humanized-ribosome RFP mutants, fluorescence, 24 h; stronger effect = lower value; DMSO median 0, no signal -100;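 active = significant combined selectivity score with lowered wild-type GFP, culture density cut under 30%, mutant RFP and density less affected; inactive = any of these conditions unmet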; note: one replicate is shown; some compounds called inactive have numbers as strong as hits
rRNA inh HTS OD600 – recorded beside rRNA inh HTS, whose call it bears; OD600 change, %; measured here: OD600 growth;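 optical density of the mix in the first replicate; 0 = DMSO median and -100 = no signal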
rRNA inh HTS RFP – further read-out of rRNA inh HTS, marked with its call; RFP signal change, %; measured here: RFP humanized mutant strains;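 first replicate; 0 = DMSO median and -100 = no signal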
Active calls of the source: *; & = joins results of further samples.

Each structure is followed by: rRNA inh HTS	rRNA inh HTS OD600	rRNA inh HTS RFP
> CO[C@@H]1CN(C)C(=O)c2ccc(NC(=O)C3CC3)cc2OC[C@H](C)N(C(=O)CN2CCOCC2)C[C@@H]1C
 : 2	5	-0.5
> C[C@@H]1CN([C@H](C)CO)C(=O)c2cc(NC(=O)NC3CCCCC3)ccc2O[C@@H]1CN(C)Cc1ccc(C(F)(F)F)cc1
 : -1	-4	1.0
> COCC(=O)Nc1ccc2c(c1)[C@H]1C[C@@H](CC(=O)N3CCc4ccccc4C3)O[C@H](CO)[C@H]1O2
 : -1	-1	0.4
> CO[C@@H]1CN(C)C(=O)c2ccc(NC(=O)C3CCOCC3)cc2OC[C@@H](C)N(CC2CCOCC2)C[C@H]1C
 : 0	-1	-1.6
> COc1ccc(C(=O)Nc2ccc3nc4n(c(=O)c3c2)CCCCC4)cc1OC
 : 11	14	1.6
> COCC(=O)Nc1ccc2c(c1)[C@H]1C[C@H](CC(=O)NC3CCCC3)O[C@H](CO)[C@H]1O2
 : 0	6	1.7
> O=C(c1ccncc1)N1C[C@H]2[C@@H](c3ccccc31)[C@H](CO)N2C(=O)c1ccncc1
 : 2	-2	-0.5
> CC(C)CN(C[C@@H]1[C@@H](c2ccccc2)[C@H](CO)N1C(=O)C1CCC1)C(=O)C1CC1
 : -1	5	-1.0
> CO[C@@H]1CN(C)C(=O)c2cc(NC(=O)CC(F)(F)F)ccc2OC[C@H](C)NC[C@@H]1C
 : 4	6	11
> O=C(NCC[C@H]1CC[C@H](NC(=O)Nc2cc(F)ccc2F)[C@H](CO)O1)Nc1ccc(F)cc1
 : -4	-6	0.7
> COc1ccc(S(=O)(=O)Nc2ccc3c(c2)CC(=O)N([C@H](C)CO)C[C@H](C)[C@@H](CN(C)Cc2ccc(C(=O)Nc4ccccc4N)cc2)O3)cc1
 : -5	-4	-0.2
> COC(=O)[C@]1(CC(C)C)NC=C(C(=O)c2ccccc2)[C@@H]1c1cccs1
 : 2	-3	4.9
> C[C@H](CO)N1C[C@H](C)[C@@H](CN(C)Cc2ccc(C(=O)O)cc2)Oc2ccc(NC(=O)c3ccncc3)cc2CC1=O
 : 2	-6	-0.8
> CO[C@H]1CN(C)C(=O)c2ccc(NC(=O)c3nc4ccccc4s3)cc2OC[C@H](C)N(Cc2cncnc2)C[C@H]1C
 : -7	-9	3.5
> COc1ccc(C#Cc2cnc3c(c2)C(=O)N([C@H](C)CO)C[C@H](C)[C@H](CN(C)Cc2cccc(C(F)(F)F)c2)O3)cc1OC
 : 3	3	0.9

Complete entries, quoted from the list.
Shown for CO[C@@H]1CN(C)C(=O)c2ccc(NC(=O)C3CC3)cc2OC[C@H](C)N(C(=O)CN2CCOCC2)C[C@@H]1C : rRNA inh HTS: 2; rRNA inh HTS OD600: 5; rRNA inh HTS RFP: -0.5
Shown for CO[C@H]1CN(C)C(=O)c2ccc(NC(=O)c3nc4ccccc4s3)cc2OC[C@H](C)N(Cc2cncnc2)C[C@H]1C : rRNA inh HTS: -7; rRNA inh HTS OD600: -9; rRNA inh HTS RFP: 3.5
Shown for CC(C)CN(C[C@@H]1[C@@H](c2ccccc2)[C@H](CO)N1C(=O)C1CCC1)C(=O)C1CC1 : rRNA inh HTS: -1; rRNA inh HTS OD600: 5; rRNA inh HTS RFP: -1.0

Going on with the list:
Each structure is followed by: rRNA inh HTS	rRNA inh HTS OD600	rRNA inh HTS RFP
> CC(C)NC(=O)Nc1ccc2c(c1)CC(=O)N([C@H](C)CO)C[C@@H](C)[C@H](CN(C)C(=O)NC(C)C)O2
 : 1	14	-1.7
> Cc1noc(C)c1S(=O)(=O)N(C)C[C@H]1OCCCC[C@H](C)Oc2ccc(NC(=O)C3CCCCC3)cc2C(=O)N([C@H](C)CO)C[C@@H]1C
 : -4	-9	-0.1
> Cc1cccnc1C(NC(=O)C1CCN(CCCOc2ccccc2)CC1)c1ccc(F)cc1 (stereo unspecified)
 : -2	0	-1.1
> Cc1noc(C)c1NC(=O)Nc1ccc2c(c1)C(=O)N([C@H](C)CO)C[C@H](C)[C@@H](CN(C)S(=O)(=O)c1cccs1)OCCCC[C@H](C)O2
 : -3	5	1.5
> O=C(Nc1ccc(C(F)(F)F)cc1)N[C@@H]1CC[C@H](CC(=O)N2CCCCC2)O[C@H]1CO
 : -4	-8	-0.7
> O=C(Nc1ccccc1F)N1CCCCN2[C@H](CO)[C@@H](c3ccc(C4=CCCC4)cc3)[C@H]2C1
 : -43	-68	-2.6
> Cc1ccc(S(=O)(=O)N(C)C[C@H]2Oc3c(NC(=O)CCCCCC(=O)Nc4ccccc4N)cccc3C(=O)N([C@H](C)CO)C[C@@H]2C)cc1
 : -4	-3	1.4
> C[C@H](CO)N1C[C@H](C)[C@@H](CN(C)C(=O)C2CCCCC2)Oc2ncc(-c3ccccc3F)cc2C1=O
 : -5	-8	2.4
> CCCC(=O)Nc1ccc2c(c1)C(=O)N(C)C[C@H](OC)[C@@H](C)CN(CCc1ccccc1)[C@H](C)CO2
 : -3	-12	4.2
> COc1ccc(NC(=O)N(C)C[C@@H]2OCCCC[C@H](C)Oc3ccc(NS(=O)(=O)c4ccc(Cl)cc4)cc3C(=O)N([C@H](C)CO)C[C@@H]2C)cc1
 : -1	-2	1.3
> c1cc(-c2ccc3c(c2)CCO3)n2cnnc2c1
 : 4	4	-3.9
> COc1cccc(C#Cc2ccc([C@@H]3[C@H](CO)N4C(=O)CN(C(=O)C5CC5)C[C@@H]34)cc2)c1
 : 2	-15	12
> COCC(=O)N1CCCCN2[C@H](CO)[C@@H](c3ccc(-c4ccc(C)cc4)cc3)[C@H]2C1
 : 7	16	1.8
> COc1ccc(S(=O)(=O)N(C)C[C@@H]2OCCCC[C@@H](C)Oc3ccc(NC(=O)NC4CCCCC4)cc3C(=O)N([C@H](C)CO)C[C@@H]2C)cc1
 : 5	10	1.1
> CN(C)c1ccc(/C=C/CNC[C@H]2O[C@@H](n3ccc(N)nc3=O)[C@H](O)[C@@H]2O)cc1
 : -4	2	-3.4
> C[C@@H]1CN([C@@H](C)CO)C(=O)Cc2cc(NC(=O)Nc3ccc(C(F)(F)F)cc3)ccc2O[C@H]1CN(C)CC1CC1
 : -3	-12	4.4
> O=C(NCC1CCCCC1)[C@@H]1[C@@H](CO)[C@@H]2Cn3c(ccc(-c4cncnc4)c3=O)[C@H]1N2
 : 2	6	-3.1
> C[C@H]1CCCCO[C@@H](CN(C)C(=O)Nc2ccc(F)cc2)[C@@H](C)CN([C@@H](C)CO)C(=O)c2cc(NS(=O)(=O)c3ccccc3)ccc2O1
 : 0	-5	0.5
> O=C(C[C@@H]1C[C@H]2c3cc(NC(=O)C4CCOCC4)ccc3O[C@H]2[C@@H](CO)O1)NCc1ccc2c(c1)OCO2
 : 8	8	0.0
> COc1cccc(-c2ccc3c(c2)O[C@H](CN(C)CC2CC2)[C@H](C)CN([C@@H](C)CO)S3(=O)=O)c1
 : 1	-3	0.7
> C[C@@H]1CN([C@@H](C)CO)C(=O)CCCn2nncc2CO[C@@H]1CN(C)S(=O)(=O)c1ccc2ccccc2c1
 : -4&-5	-6&-9	-2.7&4.0
> C[C@@H]1CN([C@H](C)CO)C(=O)c2cc(NC(=O)C3CCCCC3)ccc2O[C@H]1CN(C)Cc1ccc(Cl)c(Cl)c1
 : -5	-5	-5.8
> C[C@@H]1CN([C@@H](C)CO)C(=O)c2cc(NC(=O)CCN3CCOCC3)ccc2O[C@@H]1CN(C)C(=O)Nc1ccc(F)cc1
 : 3	10	-0.1
> CC(=O)N(C)C[C@H]1Oc2ncc(C#Cc3ccc(F)cc3)cc2C(=O)N([C@@H](C)CO)C[C@H]1C
 : -1	-11	0.9
> C[C@H](O)C#Cc1cnc2c(c1)C(=O)N([C@@H](C)CO)C[C@H](C)[C@H](CN(C)Cc1cncnc1)O2
 : 3	0	-2.3
> CC(C)NC(=O)N(C)C[C@H]1Oc2c(NC(=O)C3CC3)cccc2C(=O)N([C@@H](C)CO)C[C@@H]1C
 : 2	5	-3.4
> Cc1noc(C)c1NC(=O)Nc1ccc2c(c1)C(=O)N([C@H](C)CO)C[C@@H](C)[C@H](CN(C)Cc1ccc3c(c1)OCO3)O2
 : 0	0	-2.8
> C[C@@H]1CN([C@@H](C)CO)C(=O)CCCn2cc(nn2)CO[C@H]1CN(C)CC1CCCCC1
 : 4	-1	-0.4
> C[C@@H]1CN([C@H](C)CO)C(=O)c2cccc(NC(=O)Nc3ccccc3)c2O[C@H]1CN(C)S(=O)(=O)c1cn(C)cn1
 : -2	6	-1.2
> CCCN(C)C[C@H]1Oc2cc(C#CCC(C)C)ccc2S(=O)(=O)N([C@H](C)CO)C[C@H]1C
 : -3	-36	30
> C[C@H](CO)N1C[C@H](C)[C@@H](CN(C)S(=O)(=O)c2ccc(Cl)cc2)Oc2ccc(NC(=O)C3CCCCC3)cc2C1=O
 : -6	-8	-1.5
> CCCNC(=O)N(C)C[C@H]1Oc2ncc(C3=CCCCC3)cc2C(=O)N([C@@H](C)CO)C[C@@H]1C
 : 2	1	-2.4
> C[C@@H]1CN([C@H](C)CO)C(=O)c2cccc(NC(=O)c3ccc(-c4nccs4)cc3)c2O[C@H]1CN(C)S(=O)(=O)c1ccc(F)cc1
 : -8	-3	-2.5
> CC(=O)Nc1ccc2c(c1)C(=O)N(C)[C@H]1CC[C@@H](CC(=O)N3CCc4ccccc4C3)O[C@@H]1CO2
 : 2	4	0.5
> C[C@@H]1CN([C@H](C)CO)S(=O)(=O)c2ccc(C#C[C@@H](C)O)cc2O[C@@H]1CN(C)C(=O)C1CC1
 : 2	-2	-1.1
> COc1cccc(-c2ccc(CN3C(C)C(=O)N(Cc4cn(Cc5ccco5)nn4)CCS3(=O)=O)cc2)c1OC (stereo unspecified)
 : -2	-13	4.3
> O=C(C[C@H]1CC[C@@H]2[C@H](COC[C@@H](O)CN2C(=O)c2ccccc2F)O1)NCc1ccccc1
 : 1	10	-0.3
> CCS(=O)(=O)N1CC2(C1)[C@@H](c1ccccc1)[C@@H](CO)N2C(=O)C1CCC1
 : -1	-2	1.0
> CCC(=O)N1CC2(CCN(Cc3ccc(Cl)cc3)CC2)c2c(n(C)c3cc(OC)ccc23)[C@H]1CO
 : -2	-21	2.9
> OC[C@H]1[C@H](c2ccc(-c3ccccc3)cc2)[C@H]2CN(Cc3cncnc3)CCCCN21
 : 0	0	-2.1
> C[C@@H](NC(=O)C[C@@H]1C=C[C@@H](NC(=O)C2CCOCC2)[C@H](CO)O1)c1ccccc1
 : -1	3	1.4
> CCCC(=O)Nc1ccc2c(c1)OC[C@@H](C)N(C(=O)c1cccnc1)C[C@H](C)[C@H](OC)CN(C)C2=O
 : 1	6	-1.0
> O=C(Nc1ccn(CCCN2CCN(Cc3ccc(F)cc3)CC2)c(=O)n1)OCc1ccccc1
 : 12	1	6.4
> O=C(C[C@@H]1CC[C@H]2[C@@H](COC[C@@H](O)CN2Cc2nccs2)O1)NCc1ccccc1
 : -2	7	-1.5
> Cc1ccc(-c2cnc3c(c2)C(=O)N([C@H](C)CO)C[C@H](C)[C@H](CN(C)Cc2ccccc2C(=O)O)O3)cc1
 : -3	2	-0.1
> COc1cccc(-c2ccc(C3[C@@H]4CN(C(=O)c5ccc(F)cc5)C[C@H]3N4)cc2)c1 (stereo partly specified)
 : -50	-72	-0.8
> O=C(CC(F)(F)F)N1C[C@H]2[C@@H](c3ccccc31)[C@@H](CO)N2C(=O)C1CCCCC1
 : 2	-8	0.4
> CCN(CC)C(=O)C1=C(C)N(CCCN2CCCC2=O)C(=O)C(CC(=O)NC(c2ccccc2)c2ccccc2)C1 (stereo unspecified)
 : 3	5	-4.7
> CC(C)(O)C#Cc1ccc([C@H]2[C@@H](CO)N3CCCCN(C(=O)c4ccc(F)cc4)C[C@H]23)cc1
 : 0	9	-1.3
> C[C@@H]1CN([C@H](C)CO)C(=O)Cc2cc(NS(=O)(=O)c3cn(C)cn3)ccc2O[C@@H]1CN(C)S(=O)(=O)c1cn(C)cn1
 : 3	6	1.6
> O=C(C[C@H]1CC[C@@H]2[C@H](COC[C@@H](O)CN2C(=O)Nc2cccc(F)c2)O1)NCCCN1CCOCC1
 : -9	-11	1.4
> C[C@H](CO)N1C[C@H](C)[C@H](CN(C)C(=O)c2ccccc2F)Oc2ncc(C#Cc3ccncc3)cc2C1=O
 : 9	22	0.6
> Cc1ccc(S(=O)(=O)Nc2cccc3c2O[C@@H](CN(C)Cc2ccc(C(=O)Nc4ccccc4N)cc2)[C@@H](C)CN([C@H](C)CO)C3=O)cc1
 : 1	-2	-0.5
> Cc1noc(C)c1NC(=O)Nc1ccc2c(c1)C(=O)N([C@@H](C)CO)C[C@H](C)[C@@H](CN(C)C(=O)Cc1ccccc1)OCCCC[C@@H](C)O2
 : -3	-1	0.1
> C[C@H](CO)N1C[C@H](C)[C@H](CN(C)C(=O)NC2CCCCC2)Oc2ccc(NC(=O)Nc3ccc(C(F)(F)F)cc3)cc2CC1=O
 : 4	-1	1.2
> CN(C)CCCNC(=O)[C@H]1[C@H](CO)[C@H]2Cn3c(ccc(-c4ccncc4)c3=O)[C@@H]1N2C(=O)C1CC1
 : 1	-5	0.2
> COCC(=O)Nc1ccc2c(c1)[C@@H]1C[C@H](CC(=O)NC3CCCCC3)O[C@H](CO)[C@@H]1O2
 : -3	1	-0.6
> Cc1cccnc1C1=NOC(Cc2ccccc2)C(=O)N1CCOc1ccc(F)cc1 (stereo unspecified)
 : -16	-21	-14
> C[C@H](CO)N1C[C@H](C)[C@H](CN(C)C(=O)Nc2ccc(F)cc2)Oc2c(NS(=O)(=O)c3ccc(F)cc3)cccc2C1=O
 : -7	2	0.6

A portion of the library; the hit share may differ from the screen's.
